DUX4 inh = DUX4-mediated transcription inhibition. 293T-iDUX4 ZSCAN4-Gaussia luciferase reporter, 24 h; hits give low values. activity change, negative = inhibition, % (concentration not given with the values). 37,000 compounds, 0.8% hits. AID 1224904;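 active means -10% or lower and over 25 points stronger than a control reporter; inconclusive means -10% or lower with a smaller gap; inactive means above -10%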;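 further: 0% = median of neutral control wells and -100% = median of positive control wells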
DUX4 inh difference = also measured in DUX4 inh; calls as there; Gaussia minus Italica difference, %; measured here: selective DUX4 reporter inhibition;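 worked out from the two reporters; negative = selective loss of the DUX4 reporter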
DUX4 inh control = recorded beside DUX4 inh, whose call it bears; activity change, negative = inhibition, %; measured here: Italica tet-on control reporter;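 0 = neutral control and -100 = positive control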
Starred values were filed as active, the others as inactive; u = inconclusive; x = not tested or not shown.

DUX4 inh	DUX4 inh difference	DUX4 inh control	structure
u	x	x	C[C@@H](NC(=O)C[C@@H]1CC[C@@H]2[C@H](COC[C@@H](O)CN2C(=O)Nc2cc(Cl)cc(Cl)c2)O1)c1ccccc1
1	-5	6.1	CO[C@@H](CN(C)C(=O)c1cnccn1)[C@H](C)CN([C@@H](C)CO)S(=O)(=O)c1ccccc1
-4	-5	1.1	C[C@H](NC(=O)C[C@H]1CC[C@H]2[C@H](COc3ccc(NC(=O)C4CCOCC4)cc3C(=O)N2C)O1)c1ccccc1
0	-4	3.9	COCCN(C[C@@H]1N[C@@H](CO)[C@H]1c1ccc(-c2cccc(F)c2)cc1)C(C)=O
6	5	1.5	CS(=O)(=O)Nc1ccc2c(c1)[C@H]1C[C@@H](CC(=O)NCC3CC3)O[C@H](CO)[C@H]1O2
1	0	1.0	CC(=O)N1[C@H](CO)[C@@H]2c3ccccc3N(C(=O)c3ccc(F)cc3)C[C@@H]21
4	0	4.3	CO[C@H](CN(C)Cc1cc(F)ccc1F)[C@@H](C)CN(C(=O)Nc1ccc(F)cc1)[C@H](C)CO
6	5	0.2	COc1ccc2c3c([nH]c2c1)[C@H](CO)N(C(=O)C1CCOCC1)CC31CCN(C)CC1
-2	0	-2.3	C[C@@H]1CN([C@@H](C)CO)C(=O)c2cc(N(C)C)ccc2O[C@H]1CN(C)CC1CCCCC1
-2	0	-2.8	N#C[C@@H]1[C@H](c2ccc(C#CC3(O)CCCC3)cc2)[C@@H](CO)N1C(=O)C1CC1
-3	-8	4.1	C[C@@H]1CCCCO[C@@H](CN(C)Cc2ccc(Cl)c(Cl)c2)[C@@H](C)CN([C@H](C)CO)C(=O)c2cc(NC(=O)Nc3ccc4c(c3)OCO4)ccc2O1
3	8	-5.5	CCCC#Cc1ccc([C@@H]2[C@@H](CO)N3C(=O)CN(C(=O)NCCC)C[C@H]23)cc1
2	13	-11	CO[C@H]1CC[C@H]2CCOc3c(C#N)cccc3C(=O)N(C)C[C@@H](OC)[C@H](C)C(=O)N(C)C[C@@H]1O2
28	27	0.9	O=C(NC1CCCC1)N1CCCCN2[C@H](CO)[C@H](c3ccc(-c4cccnc4)cc3)[C@@H]2C1
8	2	5.4	CN(C)C(=O)C[C@@H]1C=C[C@@H](NS(=O)(=O)c2ccccc2)[C@H](CO)O1
-5	-8	3.4	COc1ccc2c3c([nH]c2c1)[C@H](CO)N(S(=O)(=O)c1ccc(C)cc1)CC31CCN(C(=O)Cc2cccnc2)CC1
4	4	-0.3	O=C(NCC[C@@H]1CC[C@@H](NC(=O)c2cnccn2)[C@@H](CO)O1)c1ccc2c(c1)OCO2
0	-3	2.7	CN(C)C(=O)c1cccc(-c2ccc3c(c2)[C@H]2[C@H](CCN2Cc2nccs2)[C@H](CO)N3)c1
u	x	x	COc1ccc2c3c([nH]c2c1)[C@@H](CO)N(C(=O)CN(C)C)CC31CCN(Cc2ccccc2Cl)CC1
3	1	2.4	COc1ccccc1CNC(=O)C[C@@H]1CC[C@H]2[C@@H](COc3ccc(NC(=O)Nc4ccc(F)c(F)c4)cc3C(=O)N2C)O1
1	-4	5.0	O=C(C[C@H]1CC[C@@H]2[C@H](COC[C@@H](O)CN2Cc2cccc(C(F)(F)F)c2)O1)NCCc1ccncc1
2	-5	6.5	C/C=C/c1ccc([C@@H]2[C@H](CO)N[C@H]2CN(CC)C(=O)c2ccccn2)cc1
1	-2	2.7	CO[C@H]1CC[C@@H]2CCOc3ccc(C#N)cc3C(=O)N(C)C[C@H](OC)[C@H](C)C(=O)N(C)C[C@@H]1O2
-8	-7	-1.0	CCC(=O)N1CC(=O)N2[C@@H](CO)[C@@H](c3ccc(C#CCC(C)C)cc3)[C@@H]2C1
-1	-3	2.2	C[C@@H]1CCCCO[C@@H](CN(C)C(=O)Cc2ccccc2)[C@H](C)CN([C@H](C)CO)C(=O)c2cc(N(C)C)ccc2O1
1	0	1.0	CC(C)CC#Cc1ccc([C@H]2[C@@H](CO)N3C(=O)CN(C(=O)Cc4cccnc4)C[C@@H]23)cc1
-1	-3	2.6	CC=Cc1ccc2n(c1=O)C[C@H]1[C@H](CO)[C@@H](C(=O)NCC3CC3)[C@@H]2N1Cc1ccccc1F (mixture of isomers)
-2	-15	14	CCCC#Cc1ccc([C@@H]2[C@H](CO)N3CCCCN(C(=O)NC4CCCC4)C[C@@H]23)cc1
1	-2	2.1	O=C(N[C@@H]1CC[C@H](CC(=O)N2CCOCC2)O[C@@H]1CO)c1cccc(F)c1
10	5	5.5	COCCNC(=O)C[C@@H]1C[C@@H]2c3cc(NS(C)(=O)=O)ccc3O[C@@H]2[C@@H](CO)O1
7	2	4.7	CN(C)CC(=O)N[C@@H]1C=C[C@H](CC(=O)NCCN2CCCCC2)O[C@@H]1CO
u	x	x	C[C@H](CO)N1C[C@H](C)[C@H](CN(C)C(=O)NC2CCCCC2)OCc2ccccc2-c2c(n(C)c3ccccc23)C1=O
6	1	5.6	COCC(=O)N1[C@H](CO)[C@@H](c2ccc(-c3cccc(F)c3)cc2)[C@@H]1C#N
0	3	-2.5	O=C(C1CCCCC1)N1CC(=O)N2[C@@H](CO)[C@H](c3ccc(-c4ccccc4F)cc3)[C@@H]2C1
-1	-2	1.0	CC(C)(C)[S@](=O)N1Cc2cc(C(=O)N3CCOCC3)nc(-c3cccc(Br)c3)c2[C@@H]1CCO
3	-4	7.7	CS(=O)(=O)Nc1ccc2c(c1)[C@@H]1C[C@@H](CC(=O)NCCc3ccccc3)O[C@H](CO)[C@@H]1O2
4	5	-0.7	O=C(c1ccncc1)N1C[C@@H]2[C@H](c3ccccc31)[C@H](CO)N2C(=O)c1ccccc1F
-8	-3	-4.7	CN(C)c1ccc2c(c1)[C@@H]1C[C@@H](CC(=O)NC3CCCCC3)O[C@@H](CO)[C@@H]1O2
15	12	3.2	OC[C@@H]1[C@H](c2ccc(-c3cccnc3)cc2)[C@@H]2CN(CC3CC3)CCCCN12
0	-5	5.3	COc1ccc2c3c(n(C)c2c1)[C@@H](CO)N(C(=O)CN(C)C)CC31CN(C(=O)NC(C)C)C1
-1	-4	3.7	CCC(=O)N1[C@@H]2c3cccc(=O)n3C[C@H]1[C@H](CO)[C@H]2C(=O)N1CCCCC1
8	4	4.0	COCC(=O)N1C[C@@H](C)[C@H](OC)CN(C)C(=O)c2cc(NC(=O)c3cnccn3)ccc2OC[C@@H]1C
5	-2	7.6	C[C@H]1CN([C@@H](C)CO)C(=O)CCCn2nncc2CO[C@H]1CN(C)C
1	0	1.0	C[C@@H]1CCCCO[C@H](CN(C)S(=O)(=O)c2cn(C)cn2)[C@H](C)CN([C@@H](C)CO)C(=O)c2cc(NC(=O)CCCN(C)C)ccc2O1
-1	-5	3.6	C[C@@H](NC(=O)C[C@@H]1C[C@H]2c3cc(NC(=O)c4cccnc4)ccc3O[C@H]2[C@H](CO)O1)c1ccccc1
4	5	-1.0	CCN1[C@@H]2c3ccc(-c4ccncc4)c(=O)n3C[C@@H]2[C@@H](CO)[C@@H]1C(=O)NCc1ccccc1
1	-8	8.8	C[C@H](CO)N1C[C@H](C)[C@@H](CN(C)Cc2cccc(C(=O)O)c2)OCc2ccccc2-c2ccccc2C1=O
1	-3	4.5	O=C(C[C@H]1CC[C@H]2[C@@H](COC[C@@H](O)CN2C(=O)C2CC2)O1)NCc1ccccc1Cl
2	3	-1.4	CO[C@@H]1CN(C)C(=O)c2cc(NC(C)=O)ccc2OC[C@@H](C)N(S(C)(=O)=O)C[C@H]1C
1	0	1.0	O=C(C[C@H]1C[C@@H]2c3cc(NC(=O)C4CCOCC4)ccc3O[C@@H]2[C@H](CO)O1)NCc1cc(F)ccc1F
-2	-5	2.5	C[C@@H]1CN([C@@H](C)CO)C(=O)Cc2cc(NC(=O)Nc3ccc(F)cc3)ccc2O[C@@H]1CN(C)S(C)(=O)=O
3	0	3.1	O=C(NCC[C@H]1CC[C@@H](NC(=O)c2ccccc2F)[C@H](CO)O1)c1cnccn1
2	-3	4.7	CCCc1cn(CC[C@@H]2CC[C@@H](NC(=O)C3CCOCC3)[C@@H](CO)O2)nn1
-3	-9	5.8	COc1ccc(S(=O)(=O)N(C)C[C@@H]2Oc3ccc(NC(=O)CCN4CCOCC4)cc3CC(=O)N([C@@H](C)CO)C[C@H]2C)cc1
5	3	1.7	C[C@H]1CN([C@@H](C)CO)C(=O)c2cc(NC(=O)Cn3cnnn3)ccc2O[C@@H]1CN(C)C(=O)Nc1ccc2c(c1)OCO2
0	-1	1.2	C[C@@H]1CN([C@H](C)CO)C(=O)Cc2cc(NC(=O)C3CCCCC3)ccc2O[C@@H]1CN(C)Cc1ccc(C(=O)Nc2ccccc2N)cc1
6	3	2.9	CCNC(=O)C[C@@H]1CC[C@H]2[C@@H](COC[C@@H](O)CN2C(=O)Nc2ccc(C(F)(F)F)cc2)O1
1	0	0.9	CCCNC(=O)N(C)C[C@@H]1Oc2cc(C3=CCCC3)ccc2S(=O)(=O)N([C@H](C)CO)C[C@H]1C
18	3	15	C/C=C/c1ccc([C@H]2[C@H](CO)N3C(=O)CN(Cc4ccc(C(=O)OC)cc4)C[C@@H]23)cc1
-6	1	-6.3	COc1ccc(NC(=O)N(C)C[C@@H]2Oc3c(NC(=O)CCCCCC(=O)Nc4ccccc4N)cccc3C(=O)N([C@H](C)CO)C[C@H]2C)cc1

Carrying on:
DUX4 inh	DUX4 inh difference	DUX4 inh control	structure
u	x	x	C[C@H]1CN([C@@H](C)CO)C(=O)c2c(c3ccccc3n2C)-c2ccccc2CO[C@@H]1CN(C)S(=O)(=O)c1ccc(Cl)cc1
-1	-6	5.1	Cc1ccc(-c2ccc([C@H]3[C@@H](CO)N4C(=O)CN(C(=O)c5ccc(F)cc5)C[C@@H]34)cc2)cc1
1	-3	3.6	C/C=C/c1ccc([C@H]2[C@@H](CO)N(C(=O)C3CC3)[C@H]2CN(C)C(C)=O)cc1
0	-3	2.4	O=C(C[C@@H]1C[C@H]2c3cc(NC(=O)Nc4ccccc4)ccc3O[C@H]2[C@H](CO)O1)NCCN1CCCCC1
12	2	9.4	COCC(=O)N1CC[C@@H]2[C@H]1c1cc(-c3cccc(C#N)c3)ccc1N[C@@H]2CO
3	4	-0.8	O=C(NCc1ccccc1)[C@@H]1N[C@@H]2c3cccc(=O)n3C[C@@H]2[C@H]1CO
7	6	1.1	COCC(=O)Nc1ccc2c(c1)OC[C@@H](C)N(C)C[C@H](C)[C@@H](OC)CN(C)C2=O
-2	1	-3.6	O=C(C[C@H]1C=C[C@@H](NC(=O)Nc2ccc(C(F)(F)F)cc2)[C@H](CO)O1)NCc1ccccn1
-1	1	-2.2	O=C(NCc1ccccc1F)[C@@H]1N[C@@H]2c3ccc(-c4ccccc4F)c(=O)n3C[C@@H]2[C@H]1CO
4	2	2.1	COc1ccc(CN(C)C[C@H]2OCc3cnnn3CCCC(=O)N([C@@H](C)CO)C[C@H]2C)cc1
-5	-12	7.0	CS(=O)(=O)N1C[C@@H](O)COC[C@H]2O[C@@H](CC(=O)NCc3ccccc3)CC[C@@H]21
6	0	6.5	CCN1[C@@H]2c3ccc(-c4cccnc4)c(=O)n3C[C@H]1[C@H](CO)[C@H]2C(=O)NCc1ccccc1
-4	-2	-2.3	CCC(=O)N(C)C[C@H]1Oc2cc(-c3ccccc3C)ccc2S(=O)(=O)N([C@H](C)CO)C[C@@H]1C
-3	-2	-0.8	O=C1CCC(=O)N[C@@H](c2ccc(F)cc2)C/C=C\C[C@H](c2ccc(F)cc2)N1
3	-5	7.9	CO[C@H]1CN(C)C(=O)c2cc(NC(=O)NC3CCCC3)ccc2OC[C@@H](C)N(C)C[C@@H]1C

Compounds listed so far that contain an aryl methoxy group (eight):
DUX4 inh	DUX4 inh difference	DUX4 inh control	structure
6	5	0.2	COc1ccc2c3c([nH]c2c1)[C@H](CO)N(C(=O)C1CCOCC1)CC31CCN(C)CC1
-5	-8	3.4	COc1ccc2c3c([nH]c2c1)[C@H](CO)N(S(=O)(=O)c1ccc(C)cc1)CC31CCN(C(=O)Cc2cccnc2)CC1
u	x	x	COc1ccc2c3c([nH]c2c1)[C@@H](CO)N(C(=O)CN(C)C)CC31CCN(Cc2ccccc2Cl)CC1
3	1	2.4	COc1ccccc1CNC(=O)C[C@@H]1CC[C@H]2[C@@H](COc3ccc(NC(=O)Nc4ccc(F)c(F)c4)cc3C(=O)N2C)O1
0	-5	5.3	COc1ccc2c3c(n(C)c2c1)[C@@H](CO)N(C(=O)CN(C)C)CC31CN(C(=O)NC(C)C)C1
-3	-9	5.8	COc1ccc(S(=O)(=O)N(C)C[C@@H]2Oc3ccc(NC(=O)CCN4CCOCC4)cc3CC(=O)N([C@@H](C)CO)C[C@H]2C)cc1
-6	1	-6.3	COc1ccc(NC(=O)N(C)C[C@@H]2Oc3c(NC(=O)CCCCCC(=O)Nc4ccccc4N)cccc3C(=O)N([C@H](C)CO)C[C@H]2C)cc1
4	2	2.1	COc1ccc(CN(C)C[C@H]2OCc3cnnn3CCCC(=O)N([C@@H](C)CO)C[C@H]2C)cc1

A portion of the library, so the mix of outcomes need not match the whole.
